N370S GC: qHTS Assay for Inhibitors and Activators of N370S glucocerebrosidase as a Potential Chaperone Treatment of Gaucher Disease; N370S GC spleen homogenate, 4MU-glucoside fluorescence; Lysosomal acid glucosylceramidase (Homo sapiens), P04062; Potency, µM (titrated, usually from 59.4 µM), for inactives: top-dose activity change, negative = inhibition, most hits filed as inhibitors; hit rate 0.092% among 330,000;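 also: 0% = full enzyme activity and -100% = no enzyme basal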
TDP1 block: qHTS Assay for Inhibitors of Tyrosyl-DNA Phosphodiesterase (TDP1); hit rate 0.28% among 350,000; recombinant TDP1, AlphaScreen DNA substrate cleavage; Tyrosyl-DNA phosphodiesterase 1 (Homo sapiens), Q9NUW8; Potency, µM (highest dose often 130 µM), for inactives: top-dose activity change, negative = inhibition, usual class: inhibitors; also: nearly all actives have a fitted effect of over 40% in size
Target sequence (Q9NUW8 whole entry, looked up): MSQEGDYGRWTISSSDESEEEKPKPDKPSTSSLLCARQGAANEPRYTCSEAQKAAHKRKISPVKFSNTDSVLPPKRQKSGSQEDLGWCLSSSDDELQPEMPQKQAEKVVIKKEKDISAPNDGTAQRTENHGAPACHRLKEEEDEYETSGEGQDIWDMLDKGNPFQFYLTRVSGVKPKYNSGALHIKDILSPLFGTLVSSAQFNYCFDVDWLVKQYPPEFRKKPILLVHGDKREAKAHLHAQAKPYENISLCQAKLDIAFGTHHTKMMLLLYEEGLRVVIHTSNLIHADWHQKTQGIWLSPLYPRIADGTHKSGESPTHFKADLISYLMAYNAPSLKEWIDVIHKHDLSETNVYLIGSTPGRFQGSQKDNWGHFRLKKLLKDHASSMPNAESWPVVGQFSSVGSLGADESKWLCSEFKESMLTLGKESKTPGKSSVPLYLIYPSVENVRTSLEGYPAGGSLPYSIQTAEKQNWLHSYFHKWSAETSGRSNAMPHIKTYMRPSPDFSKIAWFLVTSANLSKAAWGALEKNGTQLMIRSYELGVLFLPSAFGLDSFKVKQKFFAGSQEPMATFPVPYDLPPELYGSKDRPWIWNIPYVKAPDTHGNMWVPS
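Recombinant E. coli-expressed Tdp1 (1 nM) preincubated with compound 15 min at RT, then 5'-biotin/3'-phosphotyrosine-FITC DNA substrate (15 nM) added for 5 min. AlphaScreen beads (10 ug/ml) added, 10 min RT; tyrosine-FITC cleavage read as signal loss.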
* marks the source's active call; other numbers are inactive results; ? = inconclusive; · = no result given; & = joins results of further samples; [ ] = dose if it differs, or a comment. Calls follow the shape of the dose curve; as a rule, active = well fitted curve in the direction sought with a large enough effect; inconclusive = small, poorly fitted or top-dose-only effect, or another doubt; inactive = no such curve, though single readings can be large; an effect the other way counts as inactive or inconclusive. Unless noted, % is scaled to controls: 0 for no effect and ±100 for the full control effect; potency is read from the fitted curve at half-maximal effect.

SMILES | N370S GC | TDP1 block
CC(CNC(=O)C(=O)NC(C)CCc1ccccc1)Cc1ccccc1 (centres undefined) | -9% | 1%
CCC(C)c1ccc(O)c(NC(=O)c2ncn[nH]2)c1 (centres undefined) | -12% | 5%
COc1cc(CNCc2ccccn2)ccc1OCC(N)=O | 9% | -4%
O=C(NCCCN=C1NS(=O)(=O)c2ccccc21)c1ccc(F)cc1 | -1% | 2%[56.1 µM]
CCOc1ccc(-n2c(C)c(C(C)=O)c3cc(OC(C)=O)ccc32)cc1 | -7% | 2%
COc1cc(CNCCc2ccccc2F)ccc1OCC(=O)N1CCCCC1 | -8% | 6%
CC(C)(C)NC(=O)CN(C(=O)C(=O)Nc1ccc2c(c1)OCCO2)N1CCOCC1 | -3% | -1%
CCOc1ccc(CNC(=O)Cn2nc(C)n3nc(-c4ccccc4)cc3c2=O)cc1 | -8% | 0%
O=C(C[C@H]1C(=O)N(c2ccc(F)c(F)c2)C[C@@H]1Cc1ccccc1)Nc1ccccc1 | -1% | ·
Cc1ccc2nc3c(cc2c1)c(NC(=O)C1CCCO1)nn3CC(C)C (centres undefined) | 24% | -7%
Cc1cccc(C)c1OCCNC(=O)OCc1ccccc1 | 1% | -2%
CCCN1C(=O)CC(C(=O)OC)=C1C | -22% | -2%
CC(C)NC(=O)CSc1nnc(COc2ccccc2Cl)o1 | -7% | -2%
O=C(COC(=O)c1cccc(S(=O)(=O)N2CCN(c3ccccc3)CC2)c1)NCc1ccco1 | 2% | 79µM*
COc1cc(C2Nc3cc(Cl)c(S(N)(=O)=O)cc3S(=O)(=O)N2)cc(OC)c1OC (centres undefined) | 1% | 1%
c1ccc(-c2cnc(CSc3nnc4ccccn34)o2)cc1 | 1% | 1%
COCCn1c(SCc2cnc(-c3ccccc3)s2)nnc1-c1ccncc1 | -7% | 6%
C/C(=N\NC(=O)c1ccccc1O)C1CC1 | -4% | -15%
O=C(Nc1c(F)cc(F)cc1Br)c1cc(-c2ccco2)on1 | 1% | 1%
Cc1cc(Cl)c(S(=O)(=O)NC2CCCC2)cc1OCC(N)=O | 0% | 1%

Of the compounds above, these have fluorine.
SMILES | N370S GC | TDP1 block
O=C(NCCCN=C1NS(=O)(=O)c2ccccc21)c1ccc(F)cc1 | -1% | 2%[56.1 µM]
COc1cc(CNCCc2ccccc2F)ccc1OCC(=O)N1CCCCC1 | -8% | 6%
O=C(C[C@H]1C(=O)N(c2ccc(F)c(F)c2)C[C@@H]1Cc1ccccc1)Nc1ccccc1 | -1% | ·
O=C(Nc1c(F)cc(F)cc1Br)c1cc(-c2ccco2)on1 | 1% | 1%

Following part
SMILES | N370S GC | TDP1 block
O=C(COC(=O)c1ccc2ncsc2c1)NC(=O)c1ccccc1 | 1% | ·
CC(=O)Nc1nonc1-c1nc2ccccc2n1Cc1nnc(C)o1 | -17% | 4%
COC(=O)[C@@H](Cc1ccccc1)NC(=O)NCCc1ccccc1 | -24% | ·
Clc1ccc(Cn2cc(/C=N/n3cnnc3)c3ccccc32)c(Cl)c1 | -12% | 5%
CCCNC(=O)Nc1ccc(F)c(Cl)c1 | 4% | 4%
Cc1onc(-c2ccccc2)c1C(=O)Nc1cccnc1 | 0% | 4%
COc1ccc(C(=O)C(C)OC(=O)COc2ccccc2)cc1 (centres undefined) | · | -6%
CCN(C(=O)COC(=O)c1ccc(O)cc1)c1cccc2ccccc12 | · | 4%
CCCn1c(NC(=O)CCS(=O)(=O)c2ccc(C)cc2)nc2ccccc21 | 24% | ·
O=C(CSc1nc2ccccc2c(=O)n1Cc1ccc(F)cc1)NCC1CCCO1 (centres undefined) | · | 0%
CN(Cc1ccc(F)cc1)C(=O)c1ccc2c(c1)NC(=O)CS2 | 9% | 2%
O=C(/C=C/c1ccc2ccccc2n1)c1cc(Cl)ccc1O | 15% | ·
COc1ccc(/C=C2\CCC(C3CCCC3)C2=O)cc1OC (centres undefined) | 0% | ·
CSc1nc(C)cc(OCC(=O)N2CCOCC2)n1 | -1% | 10%
O=C(Nc1cccc(Cl)c1)Nc1ccccc1C(=O)O | -17% | 2%
Cc1ccc(CS(=O)(=O)CCC(=O)N2CCOCC2)cc1 | -5% | 5%
COc1cc(C(=O)NCc2ccc3c(c2)OCO3)ccc1OCc1c(C)noc1C | -3% | 6%
NS(=O)(=O)c1cccc(NC(=O)c2cccnc2Oc2ccccc2)c1 | -3% | 0%
COc1ccc(CNC(=O)c2cc(=O)c3cc(C)cc(C)c3o2)cc1 | -23% | ·
CC(C)CCN1CCN(Cc2ccc(Oc3ncccn3)cc2)CC1CCO (centres undefined) | 2% | 6%
CCN(CC)S(=O)(=O)c1ccc2c(c1)nc(CCC(=O)Nc1ccccc1Cc1ccccc1)n2CC | 14% | 7%
CS(=O)(=O)N(Cc1ccc(Cl)cc1)c1ccc(C(=O)N2CCN(c3ccccc3)CC2)cc1 | 0% | 7%
CC(C)(C)NC(=O)CN(C(=O)C1CSC(=O)C1)c1ccc2c(c1)OCCO2 (centres undefined) | -11% | 2%
CNS(=O)(=O)c1cccc(C(=O)Nc2cccc(Cl)c2)c1 | -24% | -2%
Cc1ccc(C)c(SCC(=O)NC(=O)Nc2ccc3c(c2)OCCO3)c1 | 18% | 0%
Cc1ccccc1CNCc1ccc2c(c1)OCO2 | 0% | ·
COc1cccc(C(=O)N2CCSC2=S)c1 | -7% | 2%
CC(C)C(=O)NC(=S)Nc1ccccc1C(=O)NC1CCCCC1 | -23% | -3%
Cc1cccc(C(=O)Nc2c3c(nn2C(C)(C)C)CS(=O)(=O)C3)c1 | 3% | 5%
O=[N+]([O-])c1cccc(-c2n[nH]c(=S)n2-c2ccccc2)c1 | 1% | ·
N=c1oc2ccccc2cc1-c1nc2ccccc2c(=O)[nH]1 | 1% | 3%
O=C(CCn1nc(-c2ccc(Cl)cc2)ccc1=O)NCCc1ccccc1 | · | 10%
CC1CCN(CCCNC(=O)CN2C(=O)CSc3ccc(S(=O)(=O)N4CCC(C)CC4)cc32)CC1 | -3% | 0%&3%
Cc1noc2ncnc(N3CCCCC3)c12 | 5% | -1%
O=C1C(=C(c2ccccc2)c2ccccc2)Nc2ccccc21 | 9% | 13%
CCOc1[nH]n(-c2ccccc2)c(=O)c1C=Nc1ccc(C(=O)OC)cc1 | 8% | 2%
COc1cc(OC)c(NC(=S)NCc2ccc(F)cc2)cc1Cl | 16% | 0%
COc1ccc(-c2cc(=O)c3cc(OC)ccc3o2)cc1 | 2%&1% | 4%[56.1 µM]
O=C(NCC(c1cccs1)S(=O)(=O)c1ccccc1)c1ccc(C(F)(F)F)cc1 (centres undefined) | · | 9%
COc1ccc(OC)c(N(CC(=O)NC2CC2)S(=O)(=O)c2ccc(C)cc2)c1 | 11% | 5%
CCCCCC(=O)N1CCCCC1 | -6% | ·
Cc1nnc(SCC(=O)Nc2ccc(N3CCOCC3)cc2)o1 | 2% | -3%
CCOC(=O)c1oc2ccccc2c1NC(=O)c1cccs1 | -17% | -7%
COC(=O)C1=C(C)N(Cc2ccccc2)C(=NCCN2CCOCC2)N[C@H]1CCc1ccccc1 | -2% | 0%
Cc1cccc(NC(=O)CSc2nnc(-c3cc(C)[nH]n3)n2N)c1 | -3% | 1%
COC(=O)c1ccc(COc2cc([N+](=O)[O-])cc3cccnc23)cc1 | 0% | -3%
CCc1nnc(NS(=O)(=O)c2ccc(NCc3cc(Br)ccc3O)cc2)s1 | 2% | 5%
CCCCOC(=O)Nc1ccc(S(=O)(=O)Nc2ncccn2)cc1 | 15% | 2%
CCN(CC)CCN(Cc1cc2cc3c(cc2[nH]c1=O)OCCO3)C(=S)NCCCOC | 26% | ·
C(=N\Nc1nc(-c2ccccc2)cs1)/c1ccco1 | -17% | 7%
O=C(CSc1nc(=O)n(CCCN2CCOCC2)c2c1CCCC2)Nc1ccc(F)cc1F | -9% | 12%
CC1CCN(c2ccc3nnc(CCC(=O)Nc4cccc(F)c4)n3n2)CC1 | -2% | 3%
CN(C)S(=O)(=O)Oc1cccc(C(=O)Nc2ccccc2Cl)c1 | 3% | -3%
CC(=O)Oc1ccc(C(=O)Nc2cccc(C(=O)c3ccc(C)c(C)c3)c2)cc1 | -26% | 7%
CCOC(=O)c1c(-c2ccccc2)csc1NC(=O)c1nn(CC)cc1Br | 7% | -2%
Cc1nc(NC(=O)C2CC2)sc1C(=O)N1CCCCC1 | 3% | -1%
Cc1cc(C(C)(C)C)oc1C(=O)N(CC(=O)NC1CCCC1)Cc1ccccc1 | 0% | 3%
Cc1ccc(CN2CCC(CNC(=O)Nc3c(C)cccc3C)C2)cc1 (centres undefined) | · | -2%
CCC(=O)c1ccc(OCC(=O)Nc2nc(C)cs2)cc1 | · | -1%
CC1Cc2ccccc2N1CC(=O)NC(=O)NCc1ccccc1 (centres undefined) | 10% | 5%

The list continues.
SMILES | N370S GC | TDP1 block
O=C(Nc1ccc2oc(-c3ccccc3)nc2c1)c1ccc2ccccc2c1 | · | -10%[12.3 µM]
N#Cc1cccn1-c1nccs1 | 11% | 12%
CCC(C)NC(=O)CSc1ncnc2sccc12 (centres undefined) | -3% | 2%
C=C1CCC(O)C2(C)CCC3C(C)C(=O)OC3C12O (centres undefined) | -2% | ·
O=c1cc(CO)oc(CN2CCCC2)c1O | -7% | -6%
Cc1ccc(NC(=O)CCNS(=O)(=O)c2ccc3[nH]c(=O)oc3c2)cc1N(C)C | -7% | 0%
O=C(CNC(=S)N(CCCN1CCOCC1)Cc1cccs1)NCc1ccccc1 | ? | 3%
COc1ccc2oc(=O)c(C(=O)N3CCCc4ccccc43)cc2c1 | 3% | 2%
CCn1nc(C)c(Oc2ccccc2O)c1C | -18% | 6%
Cc1nn(C(=O)C2CC2)c(C)c1Sc1ccc(Cl)cc1 | 5% | 0%
C[C@H](CO)N1C[C@H](C)[C@@H](CN(C)Cc2ccccc2)Oc2ccc(NC(=O)Cn3cnnn3)cc2C1=O | · | 1%
O=C(Nc1nc2c(s1)CN(Cc1ccccc1)CC2)c1cccc(S(=O)(=O)N2CCc3ccccc32)c1 | -6% | 0%
Cc1cc(C)nc(SCc2nnc(SCC(=O)Nc3ccc(Cl)c(C(F)(F)F)c3)o2)n1 | 1% | 5%
Cc1ccccc1CN1CCC(C(=O)Nc2ccc(Oc3cccnc3)cc2)CC1 | -10% | 4%
CCOC(=O)N1CCN(C(=O)C2CCN(c3ncnc4c3sc3cccc(F)c34)CC2)CC1 | ? | 4%
COc1ccc(/C=N\NC(=O)CCc2c(C)n[nH]c2C)c(OC)c1OC | -2% | 3%
Cc1cccc(C)c1C(=O)N[C@@H](Cc1ccccc1)C(=O)O | -5% | -1%
COc1ccc(NC(=O)NNC(=O)COc2ccc(Cl)cc2C)cc1OC | -10% | 2%
CC1=C(C(=O)Nc2cccc(C(=O)NCc3ccc(F)cc3)c2)SCCO1 | 0% | 4%
O=C(Nc1ccc(Cc2ccc(NC(=O)C3CC3)c(O)c2)cc1O)C1CC1 | -4% | 0%

Random excerpt: 6 records from the list
SMILES | N370S GC | TDP1 block
Cc1ccc(NC(=O)CCNS(=O)(=O)c2ccc3[nH]c(=O)oc3c2)cc1N(C)C | -7% | 0%
COc1ccc(/C=N\NC(=O)CCc2c(C)n[nH]c2C)c(OC)c1OC | -2% | 3%
O=C(CNC(=S)N(CCCN1CCOCC1)Cc1cccs1)NCc1ccccc1 | ? | 3%
CCn1nc(C)c(Oc2ccccc2O)c1C | -18% | 6%
COc1ccc(NC(=O)NNC(=O)COc2ccc(Cl)cc2C)cc1OC | -10% | 2%
CCOC(=O)N1CCN(C(=O)C2CCN(c3ncnc4c3sc3cccc(F)c34)CC2)CC1 | ? | 4%

Next part
SMILES | N370S GC | TDP1 block
CC1CCCC(C)N1C(=O)COC(=O)CNC(=O)c1ccc(Cl)cc1Cl (centres undefined) | -10% | -9%
O=C(Nc1ccc(NC(=O)C2CC2)nc1)c1ccco1 | 7%[2.35 µM] | -1%
COc1ccc(OC)c(NC(=O)CSc2ccc3ccccc3c2)c1 | 29% | 5%
O=C(NCc1ccco1)c1cc(C(=O)C2CCCCC2)c[nH]1 | 4% | -7%
CCCCN1C(=O)/C(=C2\SC(N3CCCCC3)=NC2=O)c2ccccc21 | ? | 14%
COCCN(C(=O)CCC(=O)Nc1cccnc1)C(C(=O)NC1CCCCC1)c1ccccc1 (centres undefined) | -12% | 3%
CC(C)NC(=O)NC1C2CC3CC(C2)CC1C3 (centres undefined) | -4%[2.35 µM] | 0%
CC1C(=O)CCN(C(C)C)C1C (centres undefined) | 8% | 7%
CC(=O)Nc1cc2c(cc1C(=O)c1ccccc1)OCCO2 | 5% | 4%
O=C(Cn1cncn1)NCc1cccc(OC(F)F)c1 | 0% | 0%
COc1ccc(CNC2CC(C)N(C)CC2C)cc1OC (centres undefined) | 5% | ·
CCn1c(=O)c(C(=O)Nc2nc3ccccc3[nH]2)c(O)c2ccccc21 | 3% | 8%
CCCCC(=O)Nc1ccc(C(=O)NCc2ccncc2)cc1 | 8% | 3%
O=C(/C=C/c1cccc([N+](=O)[O-])c1)NCCN1C(=O)S/C(=C\c2cccnc2)C1=O | -6% | 4%
COc1cccc(N2CCN(C(=O)c3cc4c(=O)n(Cc5ccccc5)ccc4nc3C)CC2)c1 | 0% | 5%&10%
O=S(=O)(c1ccc(F)cc1)n1ccc(-c2cnc(-c3ccccc3)s2)n1 | 5% | -2%

Not all compounds are listed, and most or all hits are left out here.
